FGF22 binding: shifts melting point of recombinant human FGF22; Q9HCT0; recombinant FGF22 thermal shift, SYPRO orange fluorescence; percent of sucrose octasulfate shift, DMSO zero; calls only at 9.99 µM; actives 1.5% (n = 340,000); AID 651658;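 active = melting point raised past a set limit in the mean and every replicate; inconclusive = no clear call; three in four hits are not shown here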
Target sequence (Q9HCT0 whole entry, looked up): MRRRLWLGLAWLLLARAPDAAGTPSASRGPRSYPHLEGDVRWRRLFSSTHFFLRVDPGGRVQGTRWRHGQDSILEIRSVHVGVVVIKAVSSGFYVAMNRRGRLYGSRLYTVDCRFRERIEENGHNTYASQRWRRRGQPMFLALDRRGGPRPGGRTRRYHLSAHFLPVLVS
MLL AF4-AF9 inh: blocks AF4 peptide binding to human AF9. P42568. AlphaScreen, biotin-AF4 peptide binding to FLAG-AF9. inhibition, % at 10 µM. actives 0.47% (n = 350,000). AID 651704;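 active = every replicate reaching a set inhibition limit, whatever the replicate mean, cut at about 25% in these data; inconclusive = mean inhibition reaches that limit but some replicates miss it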;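 note: 0% = plate neutral control median and 100% = total signal loss; the record names both 10 and 1 µM as test concentration; the first replicate is given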
Target sequence (P42568 whole entry, looked up): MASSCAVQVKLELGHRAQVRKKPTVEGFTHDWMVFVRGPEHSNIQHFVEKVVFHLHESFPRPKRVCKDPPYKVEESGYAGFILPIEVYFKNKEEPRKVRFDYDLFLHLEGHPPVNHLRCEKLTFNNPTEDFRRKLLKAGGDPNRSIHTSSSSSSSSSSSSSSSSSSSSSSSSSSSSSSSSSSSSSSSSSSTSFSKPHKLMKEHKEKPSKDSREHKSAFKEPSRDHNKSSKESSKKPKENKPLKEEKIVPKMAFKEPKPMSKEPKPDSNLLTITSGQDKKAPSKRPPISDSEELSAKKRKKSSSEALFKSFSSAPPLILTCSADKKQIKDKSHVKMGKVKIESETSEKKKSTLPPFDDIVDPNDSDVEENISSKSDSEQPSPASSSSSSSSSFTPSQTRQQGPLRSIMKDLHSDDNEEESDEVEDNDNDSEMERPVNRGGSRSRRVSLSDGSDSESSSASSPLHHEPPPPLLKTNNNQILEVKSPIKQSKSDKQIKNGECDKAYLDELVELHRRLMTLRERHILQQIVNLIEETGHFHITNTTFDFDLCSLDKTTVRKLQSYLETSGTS
Vif A3G: HIV-1 Vif–A3G interaction blockers – biochemical, TR-FRET, GST-Vif 1-94, biotin-A3G peptide, dose response retest, primary screen (AID 1117319). TR-FRET GST-Vif / biotin-A3G peptide binding; higher % means a stronger effect; test concentration not given here; strong numbers were not always called active. one-dose inhibition, %; IC50 in µM for titrated hits. actives 0.57% (n = 260,000);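 active = above the screen mean plus three standard deviations and confirmed in dose response; inconclusive = results disagree or hit not tested in dose response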;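 note: Vif residues 1-94 fused to GST binding biotinylated APOBEC3G peptide 110-148; 0% = full assay without inhibitor and 100% = GST in place of GST-Vif; retest series ran down from 100 µM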
Ecoli rRNA inh: selective bacterial rRNA inhibition in E. coli | E. coli WT GFP vs humanized-ribosome RFP mutants, fluorescence, 24 h; hits give low values; DMSO median 0, no signal -100 | GFP signal change (wild-type ribosome), % (test concentration not listed) | actives 1.6% (n = 350,000) | AID 720706;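 active = significant combined selectivity score with lowered wild-type GFP, culture density cut under 30%, mutant RFP and density less affected; inactive = any of these conditions unmet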; note: one replicate is shown; some compounds called inactive have numbers as strong as hits
HNF4A DNA FP: change in binding of human HNF4 alpha to DNA. HNF4a-FITC DNA binding, fluorescence polarization, 1 h. activity change, % at 10 µM. actives 0.3% (n = 360,000). AID 1224865; in the data active = activity change above about 30%, passing the limit was not always enough;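 note: controls were the assay level and a saturating level of protein; the project sought stronger binding though the title names inhibitors; some compounds called inactive have numbers as strong as hits; positive values seem to mean higher polarization but the record does not say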
E coli growth: inhibitors of Escherichia coli growth; OD600, 23 h; hits give low values; OD600 absorbance (test concentration not listed); actives 0.21% (n = 330,000);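 active = OD600 absorbance below the run mean of sample wells minus 3.6 SD, in any replicate, cut at about 0.56 in these data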;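 note: stock transfer was 300 nL into about 60 µL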
ALR H2O2 inh: inhibitors of human sulfhydryl oxidase ALR. P55789. purified ALR, DTT oxidation, H2O2 HRP-luminol luminescence. inhibition, % (test concentration not listed). actives 3.8% (n = 290,000). AID 485317;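 active = mean and each replicate at 75% or more; inconclusive = only one of the two met; inactive = neither met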;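 note: stock transfer was 7.5 nL into about 7.5 µL; 0% = neutral wells and 100% = wells with inactivated enzyme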
Target sequence (P55789 whole entry, looked up): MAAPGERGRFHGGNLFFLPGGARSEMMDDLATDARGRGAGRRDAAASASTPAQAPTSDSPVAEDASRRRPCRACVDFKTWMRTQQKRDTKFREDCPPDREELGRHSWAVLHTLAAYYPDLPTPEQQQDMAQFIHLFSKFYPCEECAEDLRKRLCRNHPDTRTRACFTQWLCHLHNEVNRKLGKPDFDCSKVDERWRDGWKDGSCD
Ecoli rRNA inh OD600: second read-out of Ecoli rRNA inh, no call of its own (marks repeat the call); OD600 change, %; measured here: OD600 growth;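 optical density of the mix in the first replicate; 0 = DMSO median and -100 = no signal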
Ecoli rRNA inh RFP: recorded beside Ecoli rRNA inh, whose call it bears; RFP signal change, %; measured here: RFP humanized mutant strains;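 first replicate; 0 = DMSO median and -100 = no signal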
* hit, by the source's call; i = inactive; ? = inconclusive; · = no result given; + = active, no number. Some of the compounds tested (hit frequency here may not be typical).

Results follow in this order: FGF22 binding	MLL AF4-AF9 inh	Vif A3G	Ecoli rRNA inh	Ecoli rRNA inh OD600	Ecoli rRNA inh RFP	HNF4A DNA FP	E coli growth	ALR H2O2 inh
O=C(NCC1CCCO1)c1ccc2c(c1)N(Cc1ccccc1)C(=O)CS2=O (configuration not stated)
→ i	-4.9	9.1%	1.5	5.1	3.9	1.4	0.674	-12.8
COc1cc(C2C(C(=O)c3ccco3)=C(O)C(=O)N2CC2CCCO2)ccc1O (configuration not stated)
→ i	0.5	-0.1%	14.3	16.4	0.3	-5.0	0.684	·
CC1=NNC(=O)C1Cc1ccccc1C (configuration not stated)
→ i	1.2	7.6%	5.7	11.5	-0.3	-5.2	0.602	·
COc1ccc(NC(=O)N[C@H]2CC[C@H](CCn3cc(-c4ccc(F)cc4)nn3)O[C@@H]2CO)cc1
→ i	-11.3	·	-0.5	-3.1	0.6	·	·	·
O=C(CCN1C(=O)c2ccccc2S1(=O)=O)N1CCN(c2ccc(F)cc2)CC1
→ i	2.6	1.4%	1.8	-10.2	-1.1	-0.8	0.629	21.7
C[C@H](CO)N1C[C@H](C)[C@H](CN(C)S(=O)(=O)c2cn(C)cn2)Oc2ccc(NC(=O)Nc3ccccc3)cc2CC1=O
→ i	1.3	·	4.6	6.8	1.0	·	·	·
O=C(NCCCCCCNC(=O)c1cccs1)c1cccs1
→ i	-2.5	·	6.6	3.9	-1.9	-0.9	0.68	-4.1
Cc1ccc(S(=O)(=O)NCC(=O)NCc2cc(=O)n(C)c(=O)n2C)cc1C
→ i	-5.1	·	20.4	17.1	4.2	3.4	0.717	0.2
CCOC(=O)c1cnc(-n2nc(C)cc2C)nc1NCCc1ccccc1
→ ·	·	-3.3%	·	·	·	-3.1	0.622	-0.5
O=C(Nc1ccccc1Sc1ccccc1)c1ccccc1F
→ ·	·	·	-13.7	-12.4	-8.0	1.6	0.713	4.2
CCOc1ccc(S(=O)(=O)N(C)c2ccc(OCC(=O)N3CCOCC3)cc2)cc1
→ ·	·	1.6%	·	·	·	3.7	0.695	-15.5
COc1ccc(NS(=O)(=O)c2cnc[nH]2)cc1
→ i	0.5	5.0%	11.3	15.5	2.7	1.7	0.662	-1.1
CC1CCN(S(=O)(=O)c2cccc(C(=O)NNC(=O)c3ccco3)c2)CC1
→ i	3.2	0.0%	2.8	1.5	13.3	-4.7	0.684	-6.3
CCC(C)NC(=O)C1CCC(CNS(=O)(=O)c2cccc3nsnc23)CC1 (configuration not stated)
→ ·	·	-3.7%	·	·	·	2.5	0.651	0.5
CC1(C)Cc2c(c(-c3ccco3)[nH]c(=O)c2C#N)CS1
→ ·	·	?	·	·	·	-23.3	0.682	-11.8

One compound at a time, from the list above.
CC1(C)Cc2c(c(-c3ccco3)[nH]c(=O)c2C#N)CS1 as listed: FGF22 binding: ·; MLL AF4-AF9 inh: ·; Vif A3G: ?; Ecoli rRNA inh: ·; Ecoli rRNA inh OD600: ·; Ecoli rRNA inh RFP: ·; HNF4A DNA FP: -23.3; E coli growth: 0.682; ALR H2O2 inh: -11.8
CC1CCN(S(=O)(=O)c2cccc(C(=O)NNC(=O)c3ccco3)c2)CC1 as listed: FGF22 binding: i; MLL AF4-AF9 inh: 3.2; Vif A3G: 0.0%; Ecoli rRNA inh: 2.8; Ecoli rRNA inh OD600: 1.5; Ecoli rRNA inh RFP: 13.3; HNF4A DNA FP: -4.7; E coli growth: 0.684; ALR H2O2 inh: -6.3

Carrying on:
Results follow in this order: FGF22 binding	MLL AF4-AF9 inh	Vif A3G	Ecoli rRNA inh	Ecoli rRNA inh OD600	Ecoli rRNA inh RFP	HNF4A DNA FP	E coli growth	ALR H2O2 inh
O=C1OCC2=C1C(c1ccc3c(c1)OCO3)Sc1ccccc1N2 (configuration not stated)
→ ·	·	8.7%	·	·	·	-5.7	0.718	0.8
O=C(O)c1sccc1SCc1ccc(Cl)cc1Cl
→ ·	·	0.6%	·	·	·	0.4	0.655	0.8
O=C1COc2ccc(C(=O)COC(=O)/C=C/c3ccco3)cc2N1
→ ·	·	9.8%	·	·	·	-3.1	0.672	0.2
COC(=O)c1sccc1NC(=O)CCC1CCCC1
→ ·	·	-2.0%	·	·	·	9.2	0.698	1.0
CCOc1ccc(S(=O)(=O)N2CCN(c3ccc(C)cc3C)CC2)cc1
→ i	2.3	1.3%	8.0	2.7	-5.5	1.7	0.737	-21.8
CCC(=O)Nc1ccc2c(c1)C(=O)N(C)C[C@@H](OC)[C@@H](C)CN(Cc1ccncc1)[C@@H](C)CO2
→ i	-3.9	·	1.3	3.4	-1.7	·	·	·
CC(=O)c1ccc(S(=O)(=O)NCCC(=O)NC(C)c2ccncc2)cc1 (configuration not stated)
→ i	1.1	-19.9%	11.8	20.7	0.6	-1.2	0.652	·
C[C@@H]1CN([C@H](C)CO)C(=O)c2cc(NC(=O)CCC(F)(F)F)ccc2O[C@@H](C)CCCCO[C@@H]1CN(C)C
→ i	-7.9	·	3.5	-0.8	-2.0	·	·	·
CC1(C)OC(=O)C=C[C@]2(C)[C@H]3CC[C@@]4(C)[C@H](c5ccoc5)OC(=O)[C@H]5O[C@]54[C@]3(C)C(=O)C[C@@H]12
→ +	4.7	·	1.4	2.5	-2.5	-2.4	0.798	2.2
O=C(CN1C(=O)CCC1=O)Nc1nc(-c2nc3ccccc3s2)cs1
→ i	3.9	18.0%	-7.3	-17.1	0.9	1.3	0.727	94.9*
COCC(=O)N1[C@@H](CO)[C@@H](c2ccc(-c3cccc(OC)c3)cc2)C12CN(C(C)=O)C2
→ i	1.0	·	-1.0	-5.2	-4.2	·	·	·
CCN(CC)c1ccc(C(=O)OCC(=O)Nc2cc(C)on2)cc1
→ i	0.8	·	-9.4	-21.9	-2.0	-0.1	0.691	1.4
Cc1cccc(N2CCN(C(C(=O)NCc3ccccc3)c3ccco3)CC2)c1C (configuration not stated)
→ i	1.5	·	-38.8	-51.2	17.3	-0.9	·	·
Cn1cc(Br)c(C(=O)NC2CCCCC2)n1
→ ·	·	75.9%	·	·	·	-1.1	0.766	0.1
C[C@@H]1CN([C@H](C)CO)C(=O)Cc2cc(NS(=O)(=O)c3cccs3)ccc2O[C@H]1CN(C)Cc1ccc(Oc2ccccc2)cc1
→ i	-0.7	·	2.4	-5.4	2.1	·	·	·

Arranged by value in MLL AF4-AF9 inh (lowest first): 3 of the compounds above
Results follow in this order: FGF22 binding	MLL AF4-AF9 inh	Vif A3G	Ecoli rRNA inh	Ecoli rRNA inh OD600	Ecoli rRNA inh RFP	HNF4A DNA FP	E coli growth	ALR H2O2 inh
C[C@@H]1CN([C@H](C)CO)C(=O)c2cc(NC(=O)CCC(F)(F)F)ccc2O[C@@H](C)CCCCO[C@@H]1CN(C)C
→ i	-7.9	·	3.5	-0.8	-2.0	·	·	·
CC(=O)c1ccc(S(=O)(=O)NCCC(=O)NC(C)c2ccncc2)cc1 (configuration not stated)
→ i	1.1	-19.9%	11.8	20.7	0.6	-1.2	0.652	·
O=C(CN1C(=O)CCC1=O)Nc1nc(-c2nc3ccccc3s2)cs1
→ i	3.9	18.0%	-7.3	-17.1	0.9	1.3	0.727	94.9*

Additional records.
Results follow in this order: FGF22 binding	MLL AF4-AF9 inh	Vif A3G	Ecoli rRNA inh	Ecoli rRNA inh OD600	Ecoli rRNA inh RFP	HNF4A DNA FP	E coli growth	ALR H2O2 inh
CC(C)NC(=O)N[C@@H]1CC[C@@H](CC(=O)NC2Cc3ccccc3C2)O[C@@H]1CO
→ i	-0.7	·	2.0	0.3	-0.3	·	·	·
C[C@@H]1CN([C@H](C)CO)C(=O)c2cc(NS(=O)(=O)c3ccccc3)ccc2O[C@@H](C)CCCCO[C@H]1CN(C)C(=O)Nc1ccccc1
→ i	-3.6	·	-4.8	-2.3	-0.7	·	·	·
O=C1NC(=Nc2ccc(Cl)cc2)SC1Cc1cccc(Cl)c1Cl (configuration not stated)
→ i	-2.2	·	4.8	3.1	10.1	0.5	0.728	0.3
COc1ccccc1CC(=O)N1CCN(c2ccc(F)cc2)CC1
→ i	0.9	·	·	·	·	4.8	0.675	53.0
COc1ccc(CN(C)C[C@H]2OCCCC[C@@H](C)Oc3ccc(NC(=O)CCCN(C)C)cc3C(=O)N([C@@H](C)CO)C[C@@H]2C)cc1
→ i	-2.7	·	-0.7	6.1	-1.3	·	·	·
O=C(C[C@@H]1CC[C@H]2NC[C@H](O)COC[C@@H]2O1)NCCc1ccncc1
→ i	-2.9	·	1.0	-0.2	3.8	·	·	·
Cc1c(C(=O)N2CCN(C)CC2)oc2ccc(Br)cc12
→ i	-2.1	·	-0.6	-1.8	1.0	2.1	0.671	·
C=CCN(c1ccccc1)S(=O)(=O)c1cccc(C(=O)O)c1
→ ·	·	-3.1%	·	·	·	-2.4	0.715	8.2
Cn1c2c(c3cc([N+](=O)[O-])ccc31)CCCC2
→ i	-1.8	-5.4%	6.3	8.6	-1.7	0.1	0.646	-8.6
O=C(C[C@@H]1C=C[C@@H](NC(=O)Cc2ccccn2)[C@@H](CO)O1)NCCc1ccncc1
→ i	1.1	·	0.9	7.6	-0.2	·	·	·
CC(C)(C)c1cc(C(=O)O)n[nH]1
→ i	-0.1	-2.9%	9.3	6.0	3.8	0.8	0.745	-9.2
O=C(NCCc1ccccc1)C(NS(=O)(=O)c1cccc2nsnc12)c1ccccc1 (configuration not stated)
→ ·	·	-1.8%	·	·	·	0.2	0.669	-2.7
C[C@@H]1CN([C@@H](C)CO)C(=O)c2ccccc2-c2ccccc2CO[C@H]1CN(C)C(=O)c1ccc(F)cc1
→ i	-0.3	·	-0.3	-0.9	-3.4	·	·	·
CN1[C@@H]2c3ccc(-c4ccncc4)c(=O)n3C[C@H]1[C@H](CO)[C@H]2C(=O)Nc1nccs1
→ i	0.4	·	2.6	1.6	-2.1	·	·	·
O=C(NC1CC2CCC(C1)N2C(=O)NC1CCCCC1)NC12CC3CC(CC(C3)C1)C2 (configuration not stated)
→ ·	·	4.3%	·	·	·	1.7	0.703	0.6

More records:
Structure | FGF22 binding | MLL AF4-AF9 inh | Vif A3G | Ecoli rRNA inh | Ecoli rRNA inh OD600 | Ecoli rRNA inh RFP | HNF4A DNA FP | E coli growth | ALR H2O2 inh
CC(=O)Nc1cccc(-c2ccnc3c2CC(C)(C(=O)NCc2ccncc2)O3)c1 (configuration not stated) | i | 2.6 | · | 0.3 | 3.8 | 3.8 | 1.5 | · | ·
CCCN1C(=O)c2ccccc2NC1c1ccc(OC)cc1O (configuration not stated) | · | · | -4.0% | · | · | · | -5.4 | 0.696 | 88.2*
O=C(NCc1ccco1)Nc1cccc([N+](=O)[O-])c1 | i | 5.5 | -4.9% | -1.8 | 14.2 | -2.8 | 1.6 | 0.61 | ·
CCN(CC)C(=O)C1=C(C)NC(=S)NC1c1cn(-c2ccccc2)nc1-c1ccc(Cl)cc1 (configuration not stated) | · | · | -0.3% | · | · | · | -0.6 | 0.745 | -3.1
O=C(Nc1nc(-c2ccc(F)cc2)cs1)C1CCCO1 (configuration not stated) | · | · | -0.2% | · | · | · | -0.1 | 0.682 | 15.2
COc1ccc(CN(C)C[C@@H]2Oc3ccc(NC(=O)Cn4cnnn4)cc3C(=O)N([C@H](C)CO)C[C@H]2C)cc1 | i | -1.5 | · | 4.0 | -0.1 | 1.7 | · | · | ·
C=CCn1c(C)nc2ccccc2c1=O | i | -2.3 | -1.4% | 16.2 | 16.2 | 0.3 | 0.8 | 0.646 | -4.6
COc1ccccc1N1CCN(C(=O)CC2NC3CCCCC3NC2=O)CC1 (configuration not stated) | · | · | -0.1% | · | · | · | · | 0.744 | 9.3

Source: PubChem (several laboratories)
